VDR inhibitor = blocks the human vitamin D receptor | actives 0.93% (n = 400,000) | Potency, µM, inactives show max response, negative = inhibition, actives largely listed as inhibitors | P11473 | VDR-SRC2-3 peptide fluorescence polarization, 2 h; active means well fitted inhibition curve with a large enough effect; inconclusive means small, poorly fitted or top-dose-only effect, or another doubt; inactive means no such curve, though single readings can be large or run the other way; further: series mostly up to about 120 µM
Target sequence (P11473 whole entry, looked up): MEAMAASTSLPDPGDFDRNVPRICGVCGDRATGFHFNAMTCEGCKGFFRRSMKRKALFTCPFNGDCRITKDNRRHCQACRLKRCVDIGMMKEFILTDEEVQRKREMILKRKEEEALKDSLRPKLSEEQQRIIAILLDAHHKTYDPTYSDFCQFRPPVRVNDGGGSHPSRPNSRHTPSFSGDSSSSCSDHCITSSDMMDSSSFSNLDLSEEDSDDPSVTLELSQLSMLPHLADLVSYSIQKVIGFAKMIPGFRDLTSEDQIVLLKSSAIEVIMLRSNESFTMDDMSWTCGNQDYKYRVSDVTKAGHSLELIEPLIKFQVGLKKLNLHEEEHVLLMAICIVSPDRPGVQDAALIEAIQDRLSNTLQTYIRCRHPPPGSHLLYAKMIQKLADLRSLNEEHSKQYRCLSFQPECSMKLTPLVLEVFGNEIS
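FP read-out; VDR + SRC2-3 coactivator peptide; 23 nl compound by pintool; 2 h RT incubation; reagents held at 4 deg C, protected from light.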
The depositor's hits bear a star; u = inconclusive; & = joins results of further samples. On the % scale 0 is the no-effect control and ±100 the full control effect; potency means the concentration at half of the fitted maximal effect. These rows are one share of the data (hit frequency here may not be typical).

SMILES	VDR inhibitor
COc1cccc(N2CCN(c3ccc4nnc(CCC(=O)Nc5ccc(OC)c(OC)c5)n4n3)CC2)c1	-2%
Cn1c(=O)nc2n(-c3ccc(Cl)c(Cl)c3)c3cc(Cl)ccc3cc-2c1=O	-15%
CC(=O)c1sc(N)c(C(=O)OC(C)C)c1C	4%
CC(C)OCCCNC(=O)Cc1ccc(Br)cc1	-21%
CCOC(=O)c1c(S(=O)(=O)NCCc2ccco2)c(C)n(C)c1C	-15%
Cc1ccc(NC(=O)Cc2ccc(NC(=O)N3CCCCc4ccccc43)cc2)cc1	6%
CCCN1C2CCCC1CC(NC(=O)c1ccc(Br)cc1)C2 (configuration not stated)	11%
COc1ccc(CCNC(=O)CSc2nc3ccccc3c3nc(CCN4CCCCC4)nn23)cc1OC	-8%
Cc1ccc(S(=O)(=O)N2CCC(C(=O)NNC(=O)c3cccnc3)CC2)cc1	-1%
CCN1C(=O)c2ccccc2Sc2ccc(NC(=O)c3ccc(Cl)cc3)cc21	4%
Cc1ccc(S(=O)(=O)N2CCN(CC(=O)N/N=C\c3ccc(Cl)c([N+](=O)[O-])c3)CC2)cc1	-18%
Cc1nc2ccc(S(=O)(=O)NCC(=O)N3CCN(c4ccccn4)CC3)cc2s1	2%
CCc1ccc(C(=O)Nc2cc(C)ccc2F)s1	-1%
Clc1ccc(CSc2nc3ncccc3[nH]2)cc1	-6%
Cc1oc(-c2cccc(Cl)c2)nc1CN1CCCC(C(=O)NCc2ccco2)C1 (configuration not stated)	-2%
CCOc1ccc(CNc2nnnn2C)cc1	11%
Cc1ccc(CNC(=O)CNS(=O)(=O)c2cccs2)cc1	10%
O=C(CSc1nc(=O)n2cc(Cl)ccc2n1)NCCc1ccccc1	-6%
COc1cc(OC)c(OC)cc1/C=C1\CC(C)C/C(=C\c2cc(OC)c(OC)cc2OC)C1=O (configuration not stated)	-3%
O=C(CS(=O)(=O)Cc1ccccc1)Nc1ccc(Cl)cn1	2%
Clc1cc(/C=N\NC2=NCCN2)cc(Cl)n1	-1%
Cc1cccc(C2CC(c3ccccc3)Nc3nc(N)nn32)c1 (configuration not stated)	4%
COc1ccc(-c2cc(C(F)(F)F)nc(SCC(=O)Nc3sc4c(c3C#N)CCC4)n2)cc1	-10%
CCCCC[C@H](O)/C=C\[C@H]1[C@H](C/C=C\CCCC(=O)O)[C@@H](O)C[C@H]1O (tested in a mixture with another compound)	2%
O=C(COc1ccccc1Cl)Nc1ccc2c(c1)OCCO2	6%
Cn1cc(Cl)c(C(=O)Nc2nc3ccccc3s2)n1	-10%
O=C(NCC(=O)N(c1ccccc1)C(C(=O)NC1CCCC1)c1cccnc1)c1cccs1 (configuration not stated)	4%
C=CCN(C(=O)CNS(=O)(=O)c1ccccc1)C(C(=O)NCCOC)c1ccncc1 (configuration not stated)	3%
COc1cc(C(C(=O)NC(C)(C)C)N(C(=O)CNC(=O)c2cccs2)c2ccc(C(C)C)cc2)cc(OC)c1OC (configuration not stated)	-1%
Cc1ccccc1CCN(C(=O)Cn1nnc2ccccc21)C(C(=O)NCC1CCCO1)c1nc2ccccc2n1C (configuration not stated)	-9%

A second format for 2 compounds above:
structure,VDR inhibitor
CCOc1ccc(CNc2nnnn2C)cc1,11%
COc1cc(C(C(=O)NC(C)(C)C)N(C(=O)CNC(=O)c2cccs2)c2ccc(C(C)C)cc2)cc(OC)c1OC (configuration not stated),-1%

Ordered by molar mass (smallest number first): 5 of the compounds above.
SMILES	VDR inhibitor
Clc1cc(/C=N\NC2=NCCN2)cc(Cl)n1	-1%
O=C(CS(=O)(=O)Cc1ccccc1)Nc1ccc(Cl)cn1	2%
C=CCN(C(=O)CNS(=O)(=O)c1ccccc1)C(C(=O)NCCOC)c1ccncc1 (configuration not stated)	3%
O=C(NCC(=O)N(c1ccccc1)C(C(=O)NC1CCCC1)c1cccnc1)c1cccs1 (configuration not stated)	4%
COc1cc(C(C(=O)NC(C)(C)C)N(C(=O)CNC(=O)c2cccs2)c2ccc(C(C)C)cc2)cc(OC)c1OC (configuration not stated)	-1%

Molecules listed so far that have a furan ring, fused or not, in the order listed:
SMILES	VDR inhibitor
CCOC(=O)c1c(S(=O)(=O)NCCc2ccco2)c(C)n(C)c1C	-15%
Cc1oc(-c2cccc(Cl)c2)nc1CN1CCCC(C(=O)NCc2ccco2)C1 (configuration not stated)	-2%

Back to the main list with the six entries that preceded the break.
SMILES	VDR inhibitor
O=C(COc1ccccc1Cl)Nc1ccc2c(c1)OCCO2	6%
Cn1cc(Cl)c(C(=O)Nc2nc3ccccc3s2)n1	-10%
O=C(NCC(=O)N(c1ccccc1)C(C(=O)NC1CCCC1)c1cccnc1)c1cccs1 (configuration not stated)	4%
C=CCN(C(=O)CNS(=O)(=O)c1ccccc1)C(C(=O)NCCOC)c1ccncc1 (configuration not stated)	3%
COc1cc(C(C(=O)NC(C)(C)C)N(C(=O)CNC(=O)c2cccs2)c2ccc(C(C)C)cc2)cc(OC)c1OC (configuration not stated)	-1%
Cc1ccccc1CCN(C(=O)Cn1nnc2ccccc21)C(C(=O)NCC1CCCO1)c1nc2ccccc2n1C (configuration not stated)	-9%
COc1ccc2ccc3c(c2c1)N=CC1(O3)N(C)c2ccccc2C1(C)C (configuration not stated)	50µM*
Cc1sc2nc(CN(C(=O)NCc3ccccc3)C3CCCC3)[nH]c(=O)c2c1C	-17%
O=c1ccn(CCc2c[nH]c3ccccc23)c2c1CCCC2	-17%
Nc1nonc1-n1nnc(C(=O)N/N=C/c2ccncc2)c1CSc1ccccc1	-1%
Cc1ccc(-c2cc(-c3ccccc3)c(C#N)c(SCC(O)CS(=O)(=O)Cc3ccccc3)n2)cc1 (configuration not stated)	u
Cc1sc(NC(=O)CSc2nnnn2C(C)C)c(C#N)c1C	16%
COc1ccc(-c2nc(C#N)c(NCCc3ccccc3)o2)cc1OC	6%
CCOC(=O)c1c(O)cc(C)cc1Nc1ccccc1	14%
O=C(NCCCCc1ccccc1)C1CCCC1	2%
COc1ccc2[nH]c(=O)c(CN(C(=O)c3cccnc3)c3cc(C)ccc3C)cc2c1	-6%
CC(C)c1ccc(NC2CCCN(C(=O)c3ccccc3-c3ncc[nH]3)C2)cc1 (configuration not stated)	-15%
CCCNC(=O)C1CC(c2ccccc2C(F)(F)F)=NO1 (configuration not stated)	0%
COc1cc(S(=O)(=O)N(Cc2ccco2)C2CCCC2)ccc1-n1cnnn1	0%
COc1cc(-c2n[nH]c(=S)n2C(C)c2ccccc2)cc(OC)c1OC (configuration not stated)	-6%
O=C(Nc1ccccc1C(F)(F)F)C1CCN(S(=O)(=O)Cc2ccccc2)CC1	10%
CSCC[C@H](NC(=O)[C@@H](NC(=O)[C@H](CCC(=O)O)NC(=O)[C@H](CCSC)NC(=O)[C@H](CC(N)=O)NC(=O)[C@H](CCC(=O)O)NC(=O)[C@H](CC(N)=O)NC(=O)[C@H](CO)NC(=O)[C@H](C)N)[C@@H](C)O)C(=O)O	-9%
COC(=O)CCC(C)C1CCC2C3C(O)C[C@@H]4CC(O)CC[C@@]4(C)C3CC(O)[C@]12C (some centres not stated)	7%
COc1ccc2ccccc2c1/C=N/NC(=O)c1cc(C)[nH]n1	13%
Cc1ccc(-c2c3c(=O)n(C)c(=O)n(C)c3cn2-c2ccccc2O)cc1	-6%
O=C(CCC1N=C2c3ccccc3N=C(SCc3ccc(Cl)cc3)N2C1=O)NCc1cccs1 (configuration not stated)	0%
O=S(=O)(Nc1ccc(N2CCOCC2)cc1)c1ccc(F)cc1F	-7%
CNc1c(NC(=O)c2ccc3c(c2)OCO3)c(=O)oc2ccccc12	29%
CCN(CC(=O)NCc1ccc(Cl)cc1)C(=O)COc1ccc(C)cc1C	15%
CC(Oc1cccc(Br)c1)C(=O)N1CCCN(C)CC1 (configuration not stated)	-10%
COc1ccc2c(C)cc(C)nc2n1	2%
CC1(C)CC(=O)C2=C(C1)OC(/N=C/N1CCOCC1)=C(C#N)C2c1ccccc1 (configuration not stated)	-4%
COC(=O)c1c[nH]n2c(=O)cc(CCl)nc12	25%
Cc1ccc(NC2c3ncccc3C(=O)N2C2CCCCC2)cc1 (configuration not stated)	-4%
O=C(c1ccco1)N1CCC[C@@]2(CCN(c3cccc(-c4ccccc4)c3)C2)C1	28µM*
CC(=O)Nc1cc(C(=O)c2ccccc2)ccc1N1CCOCC1	-16%
O=C(O)c1ccc([N+](=O)[O-])c2c1C(=O)c1ccccc1C2=O	9%
COc1ccc(Nc2cc(Cl)nc(N)n2)cc1OC	9%
CCOC(=O)Cc1csc(NC(NC(=O)OCC)(C(F)(F)F)C(F)(F)F)n1	24%
O=C1NC[C@H](c2ccccc2)N1	18%
CCc1nc(=O)c(-c2ccccc2)c(C)n1-c1ccccc1	-5%
CCC1CCCCN1C(=O)CCn1ccnc1 (configuration not stated)	-14%
NC(=O)CSc1nc2c(oc3ccccc32)c(=O)n1-c1ccccc1F	9%
COC(=O)c1cccc(OC(N)=O)c1	-6%
COc1ccc(-c2nc(SCc3cc(=O)c4cc(C)ccc4[nH]3)n[nH]2)cc1	1%
COc1ccc(C)cc1S(=O)(=O)N(CC(=O)Nc1cc([N+](=O)[O-])ccc1C)c1ccc(C)c(C)c1	5%
Cc1ccc(CCNC(=O)c2cc(-c3ccc(Cl)cc3)n[nH]2)cc1	14%
COc1ccccc1N1CCN(C(=O)CN(c2ccc(C)c(C)c2)S(C)(=O)=O)CC1	17%
O=C(Nc1nnc(S(=O)(=O)N2CCOCC2)s1)c1ccc(F)cc1	6%&-5%
Cc1ccnc(NC(=O)CNC(=O)c2ccco2)c1	-13%
O=C(Cn1cncn1)N/N=C/c1c2ccccc2cc2ccccc12	4%
CC1(C)C([N+](=O)[O-])C(c2ccc(O)cc2)NC(c2ccc(O)cc2)C1[N+](=O)[O-] (configuration not stated)	9%
CCN1C(=NCCc2cccs2)N[C@@H](c2cccs2)C(C(=O)OC)=C1C	-15%
O=C(Nc1ccccc1)Nc1ccccc1-n1ccnc1	-5%
O=[N+]([O-])c1ccc(COc2ccccc2CN2CCCCC2)cc1	7%
COc1ccc(/C=C/C(=O)Nc2cc(C)nn2-c2nc3ccccc3[nH]2)cc1	0%
Cc1ccc(-n2ncc3c(=O)[nH]c(SCC(=O)N4CCOCC4)nc32)cc1	0%
COc1ccc(CCNC(=O)CCCn2c(=O)c3cccn3c3cccnc32)cc1OC	7%
CCC1CN(C(=O)N2CCC(C(=O)NCCc3ccc(OC)cc3OC)CC2)c2ccccc2O1 (configuration not stated)	8%
CCCCC[C@@H]1C=C(C(=O)O)[C@H](c2ccc(F)cc2)N1S(=O)(=O)c1ccc(C)cc1	8%
CC(=O)c1nn(-c2ccc(Br)cc2)cc1C(=O)c1ccccc1	-2%
Cc1ccc(NCN2C(=O)C3C4C=CC(C4)C3C2=O)cc1 (configuration not stated)	u
CC(C(=O)Nc1ccccc1)N1CCN(c2ccccn2)CC1 (configuration not stated)	-11%
CC1=NNC(=O)C1CC(=O)N/N=C/c1ccncc1 (configuration not stated)	-9%
CCC(CC)C(=O)OCC(=O)Nc1ccc(S(=O)(=O)N2CCOCC2)cc1OC	6%
CCOc1ccc(CCNC(=O)CCc2nc3ccccc3[nH]2)cc1OCC	-8%
Further entries:
SMILES	VDR inhibitor
O=C(CCc1ccccc1)C(=O)N1CCCC(C(=O)c2cccc(Cl)c2)C1 (configuration not stated)	-20%
CCc1ccccc1NC(=O)CCNS(=O)(=O)c1ccc2c(c1)CCC(=O)N2	1%
NC(=O)NC(=O)COC(=O)CN1C(=O)C2CCCCC2C1=O (configuration not stated)	18%
O=S(=O)(NC1C2CC3CC(C2)CC1C3)c1ccccc1 (configuration not stated)	-16%
Cc1nn2c(=O)cc(COC(=O)c3ccc(NC(=O)C(C)(C)C)cc3)nc2s1	-18%
O=C(CCSc1ccc(F)cc1)Nc1ccc(-n2cnnn2)cc1	-2%
O=C(CN1CCCC1)Nc1ccc(S(=O)(=O)N2CCCCC2)cc1	0%
CNC(=S)/N=C/NOCc1ccc(Cl)cc1Cl	6%
CN1CC(=O)Nc2ccc(F)cc2C1=O	5%
COc1ccc(NC(=O)c2cn(CC(C)C)c(=O)c3cc(OC)c(OC)cc23)cc1Cl	-6%
Cc1ccc(NC(=O)Cn2c(=O)n(Cc3nc(-c4ccccc4)no3)c(=O)c3ccccc32)cc1C	10%
O=C(CC1SCCNC1=O)Nc1ccc(F)c(Cl)c1 (configuration not stated)	-13%
CN1C(=O)c2ccc(C(=O)NC3CCCCC3)cc2C1=O	11%
CCC(=O)Nc1ccc(N2CCN(Cc3ccccc3F)CC2)cc1	-3%
COc1cccc(C(=O)NC(=S)Nn2cnnc2)c1OC	0%
Cc1cc(NC(=O)CSCC(=O)OCC(=O)c2cccc(Br)c2)no1	18%
CCn1c(=O)c(C(=O)Nc2cccnc2)c(O)c2ccccc21	-10%
N#C/C(=C\c1ccco1)c1nc2ccccc2s1	-2%
COc1cc(Cl)ccc1OCc1cc(C(=O)NC2CCc3ccccc32)no1 (configuration not stated)	-14%
CCOc1ncccc1C(=O)Nc1nc(C(C)(C)C)cs1	3%
COc1ccccc1CC(=O)Nc1ccc(S(=O)(=O)N2CCCCC2)cc1	3%
COc1ccccc1NS(=O)(=O)c1ccc2oc(SCc3ccc(C#N)cc3)nc2c1	2%
CN(Cc1ccccc1)C(=O)Nc1ccc(Cl)cc1	13%
CNc1nc(-c2c[nH]c3ccccc23)cs1	u
c1cc(-c2cn(C[C@H]3CC[C@@H]([C@@H]4CC[C@H](Cn5cc(-c6ccsc6)nn5)O4)O3)nn2)cs1	10%
COc1ccc(N(CC(=O)NCc2ccc(F)cc2)C(=O)Cn2nnc(-c3ccc(C)o3)n2)cc1OC	-1%
O=C(CCc1nnc(COc2ccccc2)o1)NC1(c2ccccc2)CC1	2%
O=C(c1cccs1)N1CCN(Cc2cn[nH]c2-c2ccc(F)cc2F)CC1	-12%
CCn1c(=O)c2cc(C(=O)NCCN3CCOCC3)sc2c2ccccc21	-1%
CCOC(=O)C(Cc1ccc(N)cc1)N1C(=O)c2ccccc2C1=O (configuration not stated)	1%
Cc1ccc(OCCOCCNC(C)(C)C)c([N+](=O)[O-])c1	2%
Cc1cccc(OCc2nnc(SC(C)C(=O)Nc3ccc(N4CCOCC4)cc3)o2)c1 (configuration not stated)	11%
